TRPV1 potentiator: human TRPV1 potentiation. TRPV1-expressing cells, Fluo-8 calcium influx, capsaicin EC20 potentiation; host cell line not named in the record; control for the full effect not named in the record. Q8NER1. potentiation, % at 8.33 µM. 320,000 compounds, 0.02% hits; active means potentiation above 80%; inconclusive means 30% to 80%; inactive means below 30%; note: 0% is about no effect
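Fluo-8 calcium influx in TRPV1-expressing cells, kinetic read (ex 480/em 520 nm). Compound added and read 3 min for agonist activity, followed by capsaicin at EC20 final and 2 min further read for enhancement.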
gsp ag: agonists of gsp mutant (McCune-Albright syndrome); gsp mutant cells, cAMP HTRF, 30 min; control for the full effect not named in the record; Potency, µM (doses to about 76.9 µM), inactives show top-dose activation (cAMP increase), actives largely listed as activators; 340,000 compounds, 0.13% hits; active = well fitted activation curve with a large enough effect; inconclusive = small, poorly fitted or top-dose-only effect, or another doubt; inactive = no such curve, though single readings can be large or run the other way; cell line not stated here;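 note: phosphodiesterase inhibitor Ro 20-1724 added with compounds to block cAMP breakdown; potency is the fitted concentration of half-maximal effect; nearly all actives have a fitted effect of over 60% in size; about a fifth of the inactives were tested at one dose only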
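Cells in DMEM/10% FBS with G418 were pretreated with compounds in DMSO plus […] (300 uM stock) for 30 min at 37C. cAMP was measured by HTRF (cAMP-d2 plus anti-cAMP antibody-K) after 30 min at room temperature.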
D2 PAM: human D2 receptor positive allosteric modulation. P14416. DiscoveRx D2 beta-arrestin cells, luminescence, 90 min; 100% = 57 uM dopamine signal. potentiation, % (concentration not given with the values). 360,000 compounds, 0.23% hits. AID 624464; active = potentiation of 50% or more; inconclusive = 30% to 50%; inactive = 30% or less;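 note: tested on top of an EC20 dose of dopamine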
Target sequence (P14416 whole entry, looked up): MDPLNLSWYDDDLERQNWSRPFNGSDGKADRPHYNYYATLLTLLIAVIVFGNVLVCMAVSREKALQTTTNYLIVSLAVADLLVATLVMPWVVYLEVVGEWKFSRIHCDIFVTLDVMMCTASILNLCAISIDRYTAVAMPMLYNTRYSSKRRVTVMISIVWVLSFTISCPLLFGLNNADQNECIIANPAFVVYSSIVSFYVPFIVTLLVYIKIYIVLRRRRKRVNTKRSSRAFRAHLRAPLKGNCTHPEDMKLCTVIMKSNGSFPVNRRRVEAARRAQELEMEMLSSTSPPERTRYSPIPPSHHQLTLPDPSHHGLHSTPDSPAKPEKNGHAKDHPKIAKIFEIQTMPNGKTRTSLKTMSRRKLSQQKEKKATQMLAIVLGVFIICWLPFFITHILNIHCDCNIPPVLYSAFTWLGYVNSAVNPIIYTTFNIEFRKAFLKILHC
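PathHunter beta-arrestin assay in DiscoveRx D2 cells. Compounds were added with an EC20 of dopamine (50 nM final) for 90 min at 37 deg C. Luminescence was read 1 h after detection reagent, with 57 uM dopamine as the EC100 control.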
Sfp inh: inhibitors of Bacillus subtilis Sfp phosphopantetheinyl transferase; Potency, µM, for inactives: max response, negative = inhibition, actives largely listed as inhibitors; AID 1490; 310,000 compounds, 3.5% hits; Biochemical Sfp PPTase activity, qHTS; Q9F4F7; active = well fitted inhibition curve with a large enough effect; inconclusive = small, poorly fitted or top-dose-only effect, or another doubt; inactive = no such curve, though single readings can be large or run the other way;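 note: the enzyme is Sfp with the accession as filed and its product quenches rhodamine fluorescence; potency is the fitted concentration of half-maximal effect; 0% = enzyme reaction without inhibitor and -100% = no enzyme wells; top concentration of the series not given in the record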
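Step 1, compound plus 15 nM Sfp-PPTase, 15 min, room temperature. Step 2, add rhodamine-CoA (5 uM) and BHQ-2-YbbR (12.5 uM). Step 3, read 525/598 nm fluorescence at 0 and 30 min.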
ClpP mod: qHTS Assay for Activators of ClpP. ATP-dependent Clp protease proteolytic subunit (Bacillus subtilis (strain 168)), P80244. purified B. subtilis ClpP, FRET peptide cleavage, 20 min. Potency, µM (top dose mostly 57.5 µM), inactives show top-dose activity change, negative = active. 340,000 compounds, 1.9% hits. AID 651965, 2013; active = well fitted falling curve with a large enough effect; inconclusive = small, poorly fitted or top-dose-only effect; inactive = no such curve, though single readings can be large or run the other way; note: potency is the fitted concentration of half-maximal effect; the source files actives as falling curves though it sought activators and does not explain the sign; nearly all actives have a fitted effect of over 65% in size; many hits overshoot -100%
Target sequence (P80244 whole entry, looked up): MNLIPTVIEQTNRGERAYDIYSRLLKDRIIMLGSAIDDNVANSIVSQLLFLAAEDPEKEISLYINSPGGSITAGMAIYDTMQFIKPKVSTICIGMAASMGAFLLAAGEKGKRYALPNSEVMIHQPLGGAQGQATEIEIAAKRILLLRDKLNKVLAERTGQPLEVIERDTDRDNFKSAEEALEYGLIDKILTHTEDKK
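ClpP 10 microg/mL final, pH 8 Tris/KCl buffer with BSA, glycerol, Tween-20; compound pinned in; FRET-FV substrate; RT 20 min; Ex320/Em430; ΔFRET vs ADEP 5.8 microM, DMSO, no enzyme.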
Menin-MLL FL inh: inhibitors of human menin-MLL interaction, wild-type MLL peptide; Fluorescence polarization, fluorescein-MLL peptide displacement from menin; FP activity change, % at 61.4 µM; AID 1766; 290,000 tested, under 10 active; inconclusive = falling polarisation curve, or a change in total fluorescence; inactive = total fluorescence flat and polarisation flat or rising; no compound was filed as active; the % refers to the polarisation; negative = inhibition;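 note: % of control where 0% means no effect; inhibitors lower the polarisation; unlabelled MLL peptide was the positive control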
gsp antagonist: antagonizes gsp, the McCune-Albright syndrome mutation; gsp-mutant cells, cAMP HTRF, 30 min; control for the full effect not named in the record; Potency, µM (doses to about 76.9 µM), for inactives: at the highest dose activity change, negative = inhibition, hits mostly inhibitors; 340,000 compounds, 0.4% hits; AID 624288; active = falling curve of any shape with a large fitted effect; inconclusive = falling curve, mostly with a smaller effect; inactive = flat or rising curve; cell line not stated here;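 note: intracellular cAMP measured with PDE inhibitor Ro 20-1724 present during compound exposure; potency is the fitted concentration of half-maximal effect; % is set by controls: 0 for no effect and ±100 for the full control effect; nearly all actives have a fitted effect of over 65% in size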
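Cells, 2000/well, grown 16–24 h in DMEM 10% FBS with 0.5 mg/ml G418, then compounds plus […] (300 uM addition stock), 30 min at 37C. cAMP read by HTRF (cAMP-d2 and anti-cAMP antibody-K in lysis buffer) after 30 min RT.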
Starred values were filed as active, the others as inactive; ? = inconclusive; nt = no result given; [ ] = another dose, or the depositor's remark.

SMILES	TRPV1 potentiator	gsp ag	D2 PAM	Sfp inh	ClpP mod	Menin-MLL FL inh	gsp antagonist
Cc1ccc(C(=O)N/C(=C\c2cn(S(=O)(=O)N(C)C)c3ccccc23)C(=O)NCCN2CCOCC2)cc1	-4	43%	-27	8%	0.4%	-0.1	-9%
CCN1C(=O)[C@H]2[C@@H](c3ccc(-c4cccc(Cl)c4)c(OC)c3)N[C@@](Cc3ccccc3)(C(=O)OC)[C@H]2C1=O	12	9%	-2	nt	-1.9%	nt	?
Cc1ccc(S(=O)(=O)NC(=O)C2CCCCC2)cc1	-10	?	-3	nt	-0.1%	nt	6%
O=C(O)c1cccc(N2C(=O)C3CC=C(Cl)CC3C2=O)c1 (stereo not given)	12	25%	-3	-5%	-3.6%	0.2	10%
Cc1csc(NC(=O)CSc2nnc(-c3ccncc3)o2)n1	-2	-15%	-28	?	0.2%	-0.6	-2%
CC(C(=O)Nc1ccc(Cl)cc1Cl)N1C(=O)NC2(CCCCCCC2)C1=O (stereo not given)	1	20%	1	nt	-0.1%	nt	-5%
O=C(NC(=S)NCc1ccncc1)c1ccccc1	3	6%	-1	-1%	-7.2%	-0.1	7%
COc1cc(/C=C2\N=C(c3ccccc3)OC2=O)ccc1OCc1c(C)no[n+]1[O-]	0	-6%	-5	11%	-4.2%	2.3	4%
CN(CC1CCCO1)S(=O)(=O)c1ccc(C(=O)Nc2nccs2)cc1 (stereo not given)	-3	0%	-15	5%	1.2%	0.9	-18%
CCn1c(C)nc2cc(OC)ccc21	-1	-24%[15.4 µM]	-3	-20%	nt	4.9	10%
O=C(CCNC(=O)c1ccco1)NCc1ccc(C(=O)O)cc1	nt	-1%[15.4 µM]	-8	nt	1.7%	nt	15%
COc1cc(NC(N)=S)c(OC)cc1Cl	3	20%	-5	6%	nt	4.6	5%
Cc1c(C(=O)NCCCN2CCCC2=O)oc2c(Cl)cccc12	24	-3%[15.4 µM]	-16	nt	nt	nt	3%
COC1OC2COC(c3ccccc3)OC2C(O)C1NC(=O)c1ccccc1 (stereo not given)	nt	-3%	-16	nt	-1.5%	nt	2%
CC1CCCC(NC(=O)c2cccc(S(=O)(=O)N3CCOCC3)c2)C1C (stereo not given)	nt	-15%	-15	nt	-7.1%	nt	nt
COc1ccc(C(=O)N(C)Cc2nc3ccccc3c(=O)[nH]2)cc1S(=O)(=O)N1CCCC1	0	6%	-16	nt	-3.1%	nt	7%
CNS(=O)(=O)c1ccc(NS(=O)(=O)c2ccccc2F)cc1	1	0%	-13	4%	1.8%	0.3	4%
Cc1c(Br)c([N+](=O)[O-])nn1CC(=O)N(C)Cc1ccccc1	15	28%	-8	7%	-1.1%	-0.6	-1%
CC(C)(C)c1cnnn1-c1ccc(C=O)cc1	15	3%	3	22%	-1.4%	2.0	0%
Cc1ccccc1C(=O)O/N=C/c1c(N2CCOCC2)n(C)c2ccccc12	-9	-14%	180*	0%	?	0.6	?

A draw from above in order of molecular weight, high to low:
SMILES	TRPV1 potentiator	gsp ag	D2 PAM	Sfp inh	ClpP mod	Menin-MLL FL inh	gsp antagonist
COc1ccc(C(=O)N(C)Cc2nc3ccccc3c(=O)[nH]2)cc1S(=O)(=O)N1CCCC1	0	6%	-16	nt	-3.1%	nt	7%
Cc1c(C(=O)NCCCN2CCCC2=O)oc2c(Cl)cccc12	24	-3%[15.4 µM]	-16	nt	nt	nt	3%
CCn1c(C)nc2cc(OC)ccc21	-1	-24%[15.4 µM]	-3	-20%	nt	4.9	10%

Additional structures
SMILES	TRPV1 potentiator	gsp ag	D2 PAM	Sfp inh	ClpP mod	Menin-MLL FL inh	gsp antagonist
COc1cccc(CNS(=O)(=O)c2c(C(=O)N3CCCC3)c(C)n(C)c2C)c1	13	-3%	-9	16%	0.0%	nt	4%
Cc1cccc(/C=N/NC(=O)Cn2nccc2C)n1	0	16%[15.4 µM]	4	50µM*	-1.2%	4.8	-8%
Cc1ccc(-c2c[n+]3c(n2-c2ccccc2)SCC3)cc1	-1	-11%	-7	7%	-0.5%	2.9	12%
CC(C)(C)c1ccc(C(=O)N2CCN(C(=O)c3cccs3)CC2)cc1	nt	16%	-3	nt	nt	nt	-7%
Cc1ccc(NC(=O)Cn2ccnc2)cc1C	-29	-70%[inhibitor]	-37	-2%	1.5%	-0.7	9%
Cc1csc(SCC(=O)Nc2ccccn2)n1	-2	4%	-1	2%	-0.5%	3.8	5%
O=C(COC(=O)c1ccc(O)cc1O)NC12CC3CC(CC(C3)C1)C2	0	0%	0	nt	-0.7%	nt	?
FC(F)(F)c1nnc2n1N=C(c1cccs1)CS2	2	-11%[15.4 µM]	3	-1%	nt	2.0	9%
c1ccc(N2CCN(c3nnnn3-c3ccccc3)CC2)cc1	-11	-77%[inhibitor]	-17	11%	-1.5%	1.0	-2%
CCOC(=O)N1CCC(NC(=O)C2CCC(Cn3c(=O)[nH]c4ccccc4c3=O)CC2)CC1 (stereo not given)	nt	0%	3	nt	-14%	nt	4%
CCC1CCCCN1C(=S)Nc1ccc(OC(F)F)cc1 (stereo not given)	-5	3%	-16	?	1.8%	-13	13%
CCCC(=NCCc1c(C)[nH]c2ccccc12)C1=C(O)CC(c2ccccc2)CC1=O (stereo not given)	3	2%	-7	6%	-3.6%	-0.1	-3%
COc1ccc(-n2nnc3c(=O)n(CC(=O)N4CCC(C)CC4)cnc32)cc1	-9	?	-4	26%	-0.8%	-0.1	-3%
O=C(O)CC/C(=N\NC(=O)CNC(=O)c1cccc(Cl)c1)c1ccccc1	0	8%[15.4 µM]	-12	19%	nt	-0.2	8%
COCCn1c(SCC(=O)N(C)c2c(N)n(Cc3ccccc3)c(=O)[nH]c2=O)nnc1-c1cccc(C)c1	23	11%[15.4 µM]	-12	nt	-0.4%	nt	2%
O=C(NNC(=O)c1ccccc1Br)c1cnccn1	nt	0%	5	nt	0.6%	nt	6%
CCCCn1c2nc3ccccc3nc2c2c(=O)n(CCC(C)C)cnc21	0	-35%[inhibitor]	-10	9%	-3.5%	1.3	5%
CCOc1ccc(-n2cc(C(=O)N3CCC(C)CC3)c3cc(OC)c(OC)cc3c2=O)cc1	-25	-1%	3	?	-16%	2.0	-15%
C#CCOCCOCCOCCNc1nc(N2CCN(C(=O)[C@H](CCCCN)n3cc([C@@H](N)[C@H](C)CC)nn3)CC2)nc(N2CCN(C(=O)[C@H](CCC(=O)O)n3cc([C@@H](N)CCCCN)nn3)CC2)n1	nt	nt	-18	nt	-1.4%	nt	-3%
COC(=O)C1C(=O)C=C(Nc2ccc(F)cc2F)CC1c1ccc(OC)cc1 (stereo not given)	21	7%[15.4 µM]	-3	3%	-29%	0.8	-3%
CCN(CC)CCCNC(=O)c1ccc(Cl)c(S(=O)(=O)Nc2ccccc2OC)c1	4	-5%	-35	5%	-1.8%	-1.2	8%
O=C(COC(=O)C1CCN(S(=O)(=O)c2ccc3c(c2)OCCO3)CC1)NC1CCS(=O)(=O)C1 (stereo not given)	-6	6%	9	nt	-1.8%	nt	9%
Cc1nc(N2CCOCC2)c2c(C)c(C(=O)Nc3ccccc3C(F)(F)F)sc2n1	-2	-3%[15.4 µM]	-3	-27%	nt	-1.0	5%
Nc1nnc(CC2=CCCCC2)s1	5	-15%	-6	11%	0.7%	1.9	9%
CCCNC(=O)C12CCC(C)(C(=O)O1)C2(C)C (stereo not given)	-8	-20%	-4	4%	1.2%	1.2	11%
CC1(C)CC2CC(C)(CN2CC(=O)C(C#N)c2ccccc2)C1 (stereo not given)	-11	-32%[inhibitor]	-5	-1%	-0.3%	2.4	-3%
O=C1N[C@@H](Cc2ccccc2)C(=O)N1CCN1CCOCC1	-1	-29%	-5	19%	-1.0%	3.5	8%
Brc1ccccc1C1=Nn2c(nnc2-c2ccco2)SC1	-25	22%[15.4 µM]	-8	-18%	nt	0.3	-3%
CCOC(=O)Cn1c(=NC(=O)c2cccs2)sc2cc(C(=O)OC)ccc21	8	-3%	13	?	-13%	-2.9	15%
Clc1ccc(-c2ccc(CNCc3ccccn3)o2)cc1	-7	3%	-79	-5%	-3.1%	-1.8	11%
CCN(CC)c1ccc(/C=C2/SC(=O)N(C(C)C)C2=O)o1	-4	26%	6	3.2µM*	nt	?	7%
COc1ccccc1NC(=O)CN1CCN(c2ccc(F)cc2)CC1	nt	-30%	5	nt	nt	nt	-1%
COc1ccc(NC(=O)NC(C)(C(F)(F)F)C(F)(F)F)cc1	-5	-16%	0	20%	-0.4%	3.6	-7%
c1ccc(CN2CCN(C3=Nc4cccc5cccc3c45)CC2)cc1	-14	5%[15.4 µM]	-14	-6%	-2.5%	?	-4%
COc1ccc(-n2c(C)cc(/C=N/Nc3nc(N4CCOCC4)nc(N4CCOCC4)n3)c2C)cc1	1	?	-10	-5%	-9.2%	2.3	-10%
Fc1ccc(N2CCN(c3nnnn3-c3ccccc3)CC2)cc1	-9	-18%	-11	13%	-2.3%	-1.3	-7%
O=C(NCc1ccccc1)c1ccc2c(c1)C(=O)N(CC1CCCO1)C2=O (stereo not given)	-13	8%	-5	1%	-2.2%	1.4	-5%
CCN1C/C(=C\c2cc(OC)c(OC)c(OC)c2)C2=NN(c3ccccc3)C(c3cc(OC)c(OC)c(OC)c3)C2C1 (stereo not given)	nt	16%	-10	nt	0.3%	nt	4%
CCOc1ccc2nc(COC(=O)c3ccncc3)c(C(=O)c3ccccc3)[n+]([O-])c2c1	2	19%	-3	-17%	0.0%	-1.2	-2%
CC(=O)Nc1cccc(-c2nc3ccccc3[nH]2)c1	7	-1%[15.4 µM]	6	-3%	nt	-21	nt
O=C(COC(=O)/C=C/C(=O)OCC(=O)Nc1ccccc1F)Nc1ccccc1F	-7	-5%	-16	1%	-0.7%	1.4	2%
COc1ccc(S(=O)(=O)Cc2ccc(C(=O)N3CCN(c4cc(Cl)ccc4C)CC3)o2)cc1	?	-22%	0	-20%	-2.3%	-1.5	-24%
O=C(NCc1cccs1)c1ccccc1	10	-12%	0	14%	-1.0%	-7.2	3%
CCOC(=O)n1c(=O)n(Cc2ccc(OC)cc2)c2ccccc21	9	4%[15.4 µM]	0	7%	0.3%	-3.2	1%
Cc1ccc(N2C(=O)CC(Sc3cccs3)C2=O)cc1 (stereo not given)	?	2%	-14	-8%	-3.3%	0.6	8%

Screening results as filed in PubChem.

Not a hit list; 5.1% or so of the library scored in one or more.
